Mtb bLac sens = beta-lactam sensitization of Mtb H37Rv. 0.27% of 330,000 active. M. tuberculosis H37Rv growth with meropenem, percent inhibition; hits of this screen are not shown here. inhibition, % at 25 µM;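 active means about 74% or more and at least 40 points above the plate without the antibiotic, then above 30% in a dose series; inconclusive means first-round hits that could not be retested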;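 further: growth measured after seven days incubation then overnight dye step; 0% = bacteria only wells and 100% = bacteria with antibiotic; twin plates without the antibiotic show which effects depend on it; some results filed as inactive read as strong as hits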
The depositor's hits bear a star.

Sample of the layout, 2 compounds:
Results for COc1cc(/C=C/C(=O)Nc2ccc(OC)c(S(=O)(=O)N3CCOCC3)c2)ccc1OCC#N ?
Mtb bLac sens: -7

What do the screens show for `CC(Sc1nnc(-c2ccco2)n1N)C(=O)NCC1CCCO1` (stereo not given)?
Mtb bLac sens: -2

Results, from the start:
Results for COc1cc(/C=C/C(=O)Nc2ccc(OC)c(S(=O)(=O)N3CCOCC3)c2)ccc1OCC#N ?
Mtb bLac sens: -7

What do the screens show for `CC(Sc1nnc(-c2ccco2)n1N)C(=O)NCC1CCCO1` (stereo not given)?
Mtb bLac sens: -2

Results for C[C@@H]1COC(=O)[C@H](CC(=O)OC(C)(C)C)C/C=C\C[C@H](CC(=O)NCCO)C(=O)N1 ?
Mtb bLac sens: 1

How did O=C(COC(=O)CC1CC2CCC1C2)NCc1ccc(F)cc1 (stereo not given) do in these assays?
Mtb bLac sens: -6

How did Cc1ccc(NC(=O)C/C(N)=N/OC(=O)Nc2cccc(Cl)c2)cc1 do in these assays?
Mtb bLac sens: -8

Results for O=C(COC(=O)COc1cccc(F)c1)NCC1CCCCC1 ?
Mtb bLac sens: -7

Results for O=C(CN1C(=O)c2ccc([N+](=O)[O-])cc2C1=O)Nc1nnc(C2CC2)s1 ?
Mtb bLac sens: -4

Results for COc1ccccc1CC(=O)NC1CCCCCC1 ?
Mtb bLac sens: -3

How did COc1ccc2[nH]c(O)c(N=NC(=O)c3ccc(NS(=O)(=O)c4cccs4)cc3)c2c1 do in these assays?
Mtb bLac sens: -1

Results for CCOC(=O)N1CCN(C(=O)COC(=O)c2cc(Cl)cc(Cl)c2)CC1 ?
Mtb bLac sens: -1

Results for O=c1[nH]c2cc(C(F)(F)F)ccc2n1-c1cc(C(F)(F)F)ccc1O ?
Mtb bLac sens: -4

What do the screens show for `O=C(NNC(=O)c1cccc(Cl)c1)NNC(=O)c1cccc(Cl)c1`?
Mtb bLac sens: -8

What do the screens show for `COc1ccc(S(=O)(=O)N2CCN(CCOc3ccc(Br)cc3)CC2)cc1OC`?
Mtb bLac sens: -3

What do the screens show for `O=C(CNC(=O)c1cccc(N2C(=O)c3ccccc3C2=O)c1)Nc1ccc(F)c(F)c1`?
Mtb bLac sens: 29

How did Nc1cc(N)nc(SCC(=O)NCc2ccc3c(c2)OCO3)n1 do in these assays?
Mtb bLac sens: 3

How did O=C(CSc1nnc(-c2ccccc2F)n1C1CCCCC1)Nc1cc(C(=O)O)ccc1Cl do in these assays?
Mtb bLac sens: -5

What do the screens show for `CC(C)C(NC(=O)c1cccc(S(=O)(=O)N2CCOCC2)c1)C(=O)NCc1ccc(Cl)cc1` (stereo not given)?
Mtb bLac sens: -4

Results for COc1ccccc1OCCC(=O)Nc1ccc2c(c1)OCO2 ?
Mtb bLac sens: -4

Results for COc1ccccc1N(CC(=O)N1CCCC1)S(=O)(=O)c1cc([N+](=O)[O-])ccc1Cl ?
Mtb bLac sens: 6

Results for O=C(NC(Cc1ccc(O)cc1)C(=O)O)c1ccc2c(c1)OCO2 (stereo not given) ?
Mtb bLac sens: -5

How did CCOC(=O)Cc1csc(NC(=O)c2cc(-c3ccncc3)nc3ccccc23)n1 do in these assays?
Mtb bLac sens: 1

Results for CCOC(=O)C1=C(COC(=O)C2CC(=O)N(c3ccc(CC)cc3)C2)NC(=O)NC1C (stereo not given) ?
Mtb bLac sens: -1

How did COc1cc(C(C)=O)ccc1OCC(O)CN1CCN(c2c(C)cccc2C)CC1 (stereo not given) do in these assays?
Mtb bLac sens: -7

What do the screens show for `CN(Cc1nc2ccccc2c(=O)[nH]1)C(=O)c1ccc(NC(=O)CSc2nnnn2C)cc1`?
Mtb bLac sens: -3

What do the screens show for `COc1ccc(CCN2CC(C(=O)Nc3nccs3)CC2=O)cc1OC` (stereo not given)?
Mtb bLac sens: 0

How did O=C(COC(=O)c1cc(=O)[nH]c2ccccc12)NCCc1ccccc1 do in these assays?
Mtb bLac sens: -2

How did Cc1ccc(C(=O)NCC(=O)Nc2ccc(Cl)cc2)s1 do in these assays?
Mtb bLac sens: -7

Results for CCOC(=O)c1sc(NC(=O)c2c(CC)noc2C)nc1C ?
Mtb bLac sens: -2

Results for Cc1cccc(NC(=O)CSc2nc3ccccc3c(=O)n2CC2CCCO2)c1 (stereo not given) ?
Mtb bLac sens: -6

How did COc1ccccc1OCC(=O)Nc1cc(S(=O)(=O)N2CCOCC2)ccc1N1CCCCC1 do in these assays?
Mtb bLac sens: 3

Results for O=S(=O)(Nc1ccccc1N1CCOCC1)c1cccs1 ?
Mtb bLac sens: -2

How did NC(=O)c1cc([N+](=O)[O-])ccc1NCc1cccc(N)c1 do in these assays?
Mtb bLac sens: 11

What do the screens show for `CC1CN(C(=O)c2ccc([N+](=O)[O-])s2)CC(C)O1` (stereo not given)?
Mtb bLac sens: 5

Results for CCC(CO)Oc1cc(NCc2ccc(C(=O)O)cc2)c2ncn(C(C)C)c2c1 (stereo not given) ?
Mtb bLac sens: 2

How did NC(=O)c1ccc(NC(=O)CCCN2C(=O)NC3(CCCC3)C2=O)cc1 do in these assays?
Mtb bLac sens: 0

How did COC(=O)C1=C(c2ccc(Cl)c(C(F)(F)F)c2)C[C@@H]2CC[C@H]1N2C(=O)N1CCCC1 do in these assays?
Mtb bLac sens: 4

Results for N#Cc1ccc(S(=O)(=O)N2CCN(C(=O)C3CC(=O)N(c4ccc5c(c4)OCCO5)C3)CC2)cc1 (stereo not given) ?
Mtb bLac sens: -1

How did Cc1cnc(C(=O)OCC(=O)Nc2cccc(C)c2C)cn1 do in these assays?
Mtb bLac sens: -3

What do the screens show for `N#CC(=Cc1ccc(O)cc1)C(N)=C(C#N)C#N`?
Mtb bLac sens: 0

Results for COCC(=O)N(C)C[C@H]1N[C@@](Cc2ccccc2)(C(=O)OC)[C@H]2C(=O)N(C)C(=O)[C@@H]12 ?
Mtb bLac sens: -5

Results for COc1ccccc1CC(=O)N1CCN(S(=O)(=O)c2ccccc2F)CC1 ?
Mtb bLac sens: -4

How did CC[C@H](C)Cc1cn([C@@H](CCCCNC(=O)OC(C)(C)C)C(=O)NCCCCCCCCCCC(=O)N2CCN(C(=O)OC(C)(C)C)CC2)nn1 do in these assays?
Mtb bLac sens: -7

Results for Cn1cccc1C1CCCN1CC(=O)Nc1ccc(C(N)=O)cc1 (stereo not given) ?
Mtb bLac sens: 1

What do the screens show for `Cc1cc(NC(=O)CN2C(=O)NC(C)(c3ccccc3Cl)C2=O)no1` (stereo not given)?
Mtb bLac sens: -6

Results for COc1cccc([C@@H]2CC=C(C(=O)O)[C@H](c3cccc(Cl)c3)N2S(=O)(=O)c2ccc(C)cc2)c1 ?
Mtb bLac sens: 1

What do the screens show for `CC1CCN(C(=O)COC(=O)c2ccc3c(c2)OCCO3)CC1`?
Mtb bLac sens: -5

Results for Cc1cccc(OC(C)C(=O)OCC(=O)Nc2sccc2C(N)=O)c1 (stereo not given) ?
Mtb bLac sens: 0

What do the screens show for `NC(=O)COC(=O)[C@H](Cc1c[nH]c2ccccc12)NC(=O)c1ccc(F)cc1`?
Mtb bLac sens: -4

What do the screens show for `Cc1csc(=O)n1CC(=O)OCC(=O)Nc1ccc(C(N)=O)cc1`?
Mtb bLac sens: -17

How did Cc1sc2ncn(CC(=O)NCCCC(=O)NCc3ccc(F)cc3)c(=O)c2c1C do in these assays?
Mtb bLac sens: -1

How did COc1cccc(CNC(=O)N2CCN(c3ccccc3Cl)CC2)c1 do in these assays?
Mtb bLac sens: -10

How did Cc1cn([C@H]2C[C@H](O)[C@@H](COS(=O)(=O)O)O2)c(=O)[nH]c1=O do in these assays?
Mtb bLac sens: -11

Results for CC1CCCCC1NCC(=O)Nc1ccccc1C(=O)Nc1ccccc1 (stereo not given) ?
Mtb bLac sens: 2

Results for CCN(CC(=O)Nc1ccccc1OC)C(=O)CN1C(=O)NC(C)(c2ccccc2)C1=O (stereo not given) ?
Mtb bLac sens: -1

Results for CCOCCCN(CC(=O)NC1CCCC1)C(=O)C(=O)Nc1ccc2c(c1)OCCO2 ?
Mtb bLac sens: -20

Results for N#Cc1ccccc1NC(=O)COC(=O)c1cccs1 ?
Mtb bLac sens: 0

What do the screens show for `Cc1ccc(NC(=O)CN2CCOCC2)cc1S(=O)(=O)N1CCCCC1`?
Mtb bLac sens: -10

Results for COc1ccccc1NS(=O)(=O)c1cccc(C(=O)NNC(=O)c2ccc(NC(C)=O)cc2)c1 ?
Mtb bLac sens: 3

How did CN1CCC(N(C)C(=O)c2cccc(S(=O)(=O)N3CCc4ccccc43)c2)CC1 do in these assays?
Mtb bLac sens: -5

What do the screens show for `COc1ccc(S(=O)(=O)N(C)C[C@H]2Oc3ccc(NC(=O)Nc4ccc5c(c4)OCO5)cc3C(=O)N([C@H](C)CO)C[C@@H]2C)cc1`?
Mtb bLac sens: 98

Results for COc1ccc(S(=O)(=O)N(C)C[C@H]2Oc3ccc(NS(=O)(=O)c4c(C)noc4C)cc3C(=O)N([C@H](C)CO)C[C@@H]2C)cc1 ?
Mtb bLac sens: -5

How did N#Cc1ccc(OCC(=O)Nc2nc(-c3ccncc3)cs2)cc1 do in these assays?
Mtb bLac sens: -2

What do the screens show for `O=C(NCc1cccs1)c1cc(S(=O)(=O)N2CCOCC2)ccc1N1CCCC1`?
Mtb bLac sens: -2

Results for COCCCn1c(SCC(=O)NC2CCS(=O)(=O)C2)nnc1-c1ccc(Cl)cc1 (stereo not given) ?
Mtb bLac sens: 7

Results for O=C(Nc1cccc(S(=O)(=O)N2CCCC2)c1)c1ccco1 ?
Mtb bLac sens: -5

How did COc1cc(NC(=O)c2ccc(OCc3c(C)noc3C)c(OC)c2)cc(OC)c1 do in these assays?
Mtb bLac sens: 3

What do the screens show for `CCn1cc(CN2CCC(n3nccc3NC(=O)c3ccc4c(c3)OCO4)CC2)c(C)n1`?
Mtb bLac sens: inconclusive

How did Cc1ccc(C(=O)N2CCN(S(=O)(=O)c3sc(C(=O)O)c(C)c3C(=O)O)CC2)s1 do in these assays?
Mtb bLac sens: 2

What do the screens show for `CN(C(=O)COC(=O)c1cccc(S(=O)(=O)N(C)c2ccccc2)c1)C1CCCCC1`?
Mtb bLac sens: -12

What do the screens show for `O=c1c2ccccc2nc(/C=C/c2cc(Br)ccc2O)n1CCO`?
Mtb bLac sens: 2

What do the screens show for `COc1cccc(NC(=O)/C=C/c2ccc(S(=O)(=O)N3CCOCC3)cc2)c1`?
Mtb bLac sens: 9

Results for O=C(O)c1cccc2c1C(=O)c1ccc(-c3ccc(Cl)c(C(F)(F)F)c3)cc1S2(=O)=O ?
Mtb bLac sens: 66

6 compounds from above, ordered by formula weight, high to low:
Results for O=C(O)c1cccc2c1C(=O)c1ccc(-c3ccc(Cl)c(C(F)(F)F)c3)cc1S2(=O)=O ?
Mtb bLac sens: 66

What do the screens show for `CN(C(=O)COC(=O)c1cccc(S(=O)(=O)N(C)c2ccccc2)c1)C1CCCCC1`?
Mtb bLac sens: -12

What do the screens show for `CCn1cc(CN2CCC(n3nccc3NC(=O)c3ccc4c(c3)OCO4)CC2)c(C)n1`?
Mtb bLac sens: inconclusive

What do the screens show for `O=C(NCc1cccs1)c1cc(S(=O)(=O)N2CCOCC2)ccc1N1CCCC1`?
Mtb bLac sens: -2

How did COc1cc(NC(=O)c2ccc(OCc3c(C)noc3C)c(OC)c2)cc(OC)c1 do in these assays?
Mtb bLac sens: 3

What do the screens show for `O=c1c2ccccc2nc(/C=C/c2cc(Br)ccc2O)n1CCO`?
Mtb bLac sens: 2

Later entries
What do the screens show for `CC(C)(C)OC(=O)C[C@H]1C/C=C\C[C@@H](CC(=O)N[C@@H](CO)Cc2ccccc2)C(=O)NC[C@H](c2ccccc2)OC1=O`?
Mtb bLac sens: 12

How did CC(CCCCCCCCC(=O)O)N(CCO)C(=O)OC(C)(C)C (stereo not given) do in these assays?
Mtb bLac sens: 5

Results for NC(=O)c1nc(C(=O)N2CCN(c3ccccc3)CC2)c2ccccc2n1 ?
Mtb bLac sens: -2

How did COC(=O)c1ccc(CNC(=O)c2ccc3c(c2)S(=O)(=O)N=C2CCCCCN23)cc1 do in these assays?
Mtb bLac sens: -2

Results for CCN1CCN(C(=O)C2CCN(C(=O)Nc3ccccc3)CC2)CC1 ?
Mtb bLac sens: -11

How did CC(C)(C)CC(=O)N1CCN(c2ccc(S(=O)(=O)N3CCOCC3)cc2[N+](=O)[O-])CC1 do in these assays?
Mtb bLac sens: -6

How did COc1ccccc1NS(=O)(=O)c1ccc(C)c(C(=O)Nc2cc(C)on2)c1 do in these assays?
Mtb bLac sens: 0

Results for CN(C)P(=O)(Nc1cccc2ccccc12)Nc1cccc2ccccc12 ?
Mtb bLac sens: -12

How did CCOc1ccc(S(=O)(=O)N2CCN(CN3C(=O)CC4(CCCC4)C3=O)CC2)cc1 do in these assays?
Mtb bLac sens: 4

Results for C/C(=N\NC(=O)c1ccoc1C)c1ccccc1O ?
Mtb bLac sens: 96

Results for Cc1cccc(CCN2CCN=C2Nc2ccccc2)c1 ?
Mtb bLac sens: 2

Results for COc1ccccc1NS(=O)(=O)c1ccc(C)c(C(=O)N2CCCC2)c1 ?
Mtb bLac sens: 3

Results for Cc1cc(Br)ccc1NC(=O)CN(C)C(=O)c1ccc2ccccc2n1 ?
Mtb bLac sens: -10

How did CC(C)(C)OC(=O)NCc1ccc(NC(=O)c2nc[nH]c2C(=O)NCCCCNC(=O)c2[nH]cnc2C(=O)Nc2ccc(CNC(=O)OC(C)(C)C)cc2)cc1 do in these assays?
Mtb bLac sens: 7

Results for O=C(N/N=C/c1ccccc1O)C(=O)N1CCCCCC1 ?
Mtb bLac sens: -9

Results for COc1ccc(S(=O)(=O)N2CCCCC2)cc1NC(=O)CNc1ccccc1N1CCCC1=O ?
Mtb bLac sens: -5

Results for CC(C)c1ccc(NC(=O)CCCN2C(=O)NC(C)(C)C2=O)cc1 ?
Mtb bLac sens: 0

How did COc1ccccc1CN(C)C(=O)COC(=O)c1c(C)noc1C do in these assays?
Mtb bLac sens: 5

What do the screens show for `CCOc1cc(N2CCOCC2)c(OCC)cc1NC(=O)COC(=O)c1ccc(Cl)nc1`?
Mtb bLac sens: 79

How did COc1ccc(OC)c(NC(=O)COC(=O)c2n[nH]c3ccccc23)c1 do in these assays?
Mtb bLac sens: 5

What do the screens show for `CCOC(=O)CNC(=O)CSc1ccc(-c2nc3ccccc3[nH]2)cn1`?
Mtb bLac sens: -8

How did N#Cc1ccccc1OCC(=O)NC(=O)NC1CCS(=O)(=O)C1 (stereo not given) do in these assays?
Mtb bLac sens: 4

The list is partial; count on the stated rates, not on these rows.
